NS1 function inh: influenza NS1 inhibition | S. cerevisiae slowed by influenza A NS1, growth recovery by OD600 | Potency, µM (top dose mostly 46.1 µM), inactives show at the highest dose activity, positive = more growth | hit rate 0.4% among 270,000 | AID 2326; active means well fitted rising curve with a large enough effect; inconclusive means small, poorly fitted or top-dose-only effect; inactive means no such curve, though single readings can be large or run the other way; note: nearly all actives have a fitted effect of over 50% in size
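Read-out: OD600 growth recovery of NS1-expressing budding yeast. Cells grown overnight at 30C in -URA glucose medium, washed, resuspended and diluted 1:100 in 2% galactose assay medium, pH 6.0. Same strain lacking NS1 served as positive control.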
2A StopGo: FMDV 2A StopGo reporter, luciferase signal; human cells with a luciferase reporter of 2A StopGo recoding; control for the full effect not named in the record; Potency, µM (highest dose often 57.9 µM), without a hit: at the top dose signal change, negative = less light; hit rate 1.2% among 410,000; active = well fitted falling curve with a large enough effect; inconclusive = small, poorly fitted or top-dose-only effect; inactive = no such curve, though single readings can be large or run the other way; tested in HEK293T cells; note: % is set by controls: 0 for no effect and ±100 for the full control effect; nearly all actives have a fitted effect of over 45% in size; luciferase light after 4 h
Cruzain inh Det: blocks cruzain activity in presence of Triton detergent | hit rate 0.43% among 200,000 | Potency, µM, inactives show max response, negative = inhibition, hits mostly inhibitors | purified cruzain, Z-FR-AMC fluorescence, 0.01% Triton;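 note: plate controls were neutral wells for no effect and buffer without enzyme for full effect; nearly all actives have a fitted effect of over 40% in size; top concentration of the series not given in the record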
Target sequence (P25779 123-467 limits assumed): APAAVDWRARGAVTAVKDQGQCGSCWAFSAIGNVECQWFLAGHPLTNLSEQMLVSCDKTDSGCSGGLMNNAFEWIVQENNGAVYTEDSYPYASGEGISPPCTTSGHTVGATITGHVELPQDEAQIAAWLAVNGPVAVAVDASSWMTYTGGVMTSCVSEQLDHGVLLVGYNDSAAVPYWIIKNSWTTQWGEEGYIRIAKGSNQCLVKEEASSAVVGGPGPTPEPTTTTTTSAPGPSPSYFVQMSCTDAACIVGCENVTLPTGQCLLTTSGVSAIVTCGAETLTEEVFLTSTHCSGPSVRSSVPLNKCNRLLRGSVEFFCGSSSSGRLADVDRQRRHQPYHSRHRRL
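Compounds were screened in titration against cruzain (1.5 nM) with 0.01% Triton X-100 to counter colloidal aggregation. Activity was the AMC fluorescence increase over 60 s after adding 2 uM Z-FR-AMC at pH 5.5.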
Cruzain inh noDet: cruzain (T. cruzi) inhibition without detergent; purified cruzain, Z-FR-AMC fluorescence, no detergent; AID 1476; P25779; Potency, µM, inactives show max response, negative = inhibition, hits mostly inhibitors; hit rate 2.3% among 200,000;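 note: plate controls were enzyme without inhibitor for no effect and buffer without enzyme for full effect; nearly all actives have a fitted effect of over 40% in size; top concentration of the series not given in the record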
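Purified cruzain at 1.5 nM, pre-incubated 15 min with compound at room temperature in 100 mM sodium acetate pH 5.5, 5 mM DTT, 0.00005% Triton X-100. Reaction started with 2 uM Z-FR-AMC; AMC fluorescence increase over 60 s gives rate.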
LASV entry inh: inhibitors of Lassa virus binding or cell entry | Lassa virus pseudotype entry inhibition, cell reporter; control for the full effect not named in the record | Potency, µM (titrated, usually from 37.9 µM), without a hit: top-dose activity change, negative = inhibition, usual class: inhibitors | hit rate 1.2% among 300,000; active means well fitted inhibition curve with a large enough effect; inconclusive means small, poorly fitted or top-dose-only effect, or effect the other way; inactive means flat fitted curve, though single readings scatter; tested in HEK293 cells; note: % is set by controls: 0 for no effect and ±100 for the full control effect; nearly all actives have a fitted effect of over 50% in size; luciferase read-out
SARS PLpro yeast: blocks SARS-CoV papain-like protease in a yeast assay. hit rate 0.19% among 330,000. S. cerevisiae expressing SARS-CoV PLpro, growth rescue; control for the full effect not named in the record. Potency, µM (top dose mostly 32.9 µM), without a hit: at the highest dose activity, positive = growth rescue; active means well fitted rising curve with a large enough effect; inconclusive means small, poorly fitted or top-dose-only effect; inactive means no such curve, though single readings can be large or run the other way; note: 0% is about no effect; nearly all actives have a fitted effect of over 55% in size; growth read by luminescence after 48 h
RE007 growth inh: less growth of the S. pombe RE007 Vpr strain. S. pombe RE007 Vpr strain, BacTiter-Glo ATP luminescence, 24 h; control for the full effect not named in the record. Potency, µM (highest dose often 92.2 µM), for the others: at the highest dose activity change, negative = less growth. hit rate 0.21% among 360,000; active = well fitted falling curve with a large enough effect; inconclusive = small, poorly fitted or top-dose-only effect; inactive = no such curve, though single readings can be large or run the other way;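 note: % is set by controls: 0 for no effect and ±100 for the full control effect; nearly all actives have a fitted effect of over 50% in size; the assay follows cell death caused by Vpr and the record does not say whether a fall means rescue or toxicity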
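Fission yeast strain RE007, carrying one chromosomally integrated HIV-1 vpr copy, was seeded at OD 0.01 in PMG+AL medium with 23 nL pinned compound. After 24 h at 30 °C and 99% humidity, viability was read by BacTiter-Glo luminescence.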
Marburg entry inh: blocks Marburg virus binding to or entry into cells | Marburg virus pseudotyped entry inhibition, cell reporter; control for the full effect not named in the record; about a third of the inactives were read at about 46 µM | Potency, µM (doses to about 37.8 µM), inactives show at the top dose activity change, negative = inhibition, usual class: inhibitors | hit rate 1.8% among 300,000 | AID 540276; active = well fitted inhibition curve with a large enough effect; inconclusive = small, poorly fitted or top-dose-only effect, or effect the other way; inactive = flat fitted curve, though single readings scatter; tested in HEK293 cells; about a fifth of its hits are not listed in these tables; note: % is set by controls: 0 for no effect and ±100 for the full control effect; luciferase read-out
An asterisk follows results filed as active; ? = inconclusive; nt = not tested or not shown; & = joins results of further samples; [ ] = another dose, or the depositor's remark. Unless noted, calls come from the whole dose curve; as a rule, active = well fitted curve in the direction sought with a large enough effect; inconclusive = small, poorly fitted or top-dose-only effect, or another doubt; inactive = no such curve, though single readings can be large; an effect the other way counts as inactive or inconclusive. Potency is the fitted concentration of half-maximal effect. Outcome played no part in choosing rows; any-hit rate near 4.7%.

mol | NS1 function inh | 2A StopGo | Cruzain inh Det | Cruzain inh noDet | LASV entry inh | SARS PLpro yeast | RE007 growth inh | Marburg entry inh
Cc1cccc(CSc2nnc(-c3ccco3)n2C)c1 | -88% | 0% | -1.1% | -4% | -1% | -4% | -23% | ?
Cc1nnc(SCC(=O)Nc2ccc(N3CCOCC3)cc2)n1-c1ccccc1 | 6% | 2% | 4.1% | -6% | -3% | -3% | 3% | 19%
Fc1ccccc1CN1CCCCCCC1 | 5% | -13% | 8.5% | -8% | ? | -6% | 0% | 2%
O=C(NC(=S)Nc1ccccc1C(F)(F)F)c1ccccc1F | 0% | 29% | nt | nt | -20% | 0% | -1% | ?
CSc1ccc(S(=O)(=O)NCC(=O)OCCOc2ccccc2)cc1[N+](=O)[O-] | nt | -2% | nt | nt | 2% | 3% | 11% | 2%[46.1 µM]
CC(C)CN(C(=O)COC(=O)CCN1C(=O)c2ccccc2C1=O)C1CCS(=O)(=O)C1 (centres undefined) | 0% | 3% | 0.5% | 0% | 14% | 5% | 0% | 2%&2%
CCc1ccc(-n2c(=O)c3sc4ccccc4c3n(CC(=O)NC3CCCC3)c2=O)cc1 | nt | ? | 0.3% | -3% | 6%[46.1 µM] | nt | nt | 0%[46.1 µM]
O=C(NC1(C(F)(F)F)C(=O)Nc2c1c(=O)[nH]c(=O)n2-c1ccccc1)c1ccccc1 (centres undefined) | nt | 11% | -0.2% | 4% | 1%[46.1 µM] | nt | nt | ?
Cc1ccccc1NCc1nc2ccccc2n1C | -17% | 29% | nt | nt | nt | -6% | ? | nt
Cc1[nH]c2ccccc2c1C(=O)C(=O)NC1CC(=O)N(c2ccccc2)C1 (centres undefined) | nt | -21% | -2.5% | -2% | -17%[46.1 µM] | nt | nt | nt
CCOc1ccc(N2C(=O)C(CC(=O)Nc3ccc(F)cc3)N(Cc3ccccn3)C2=S)cc1 (centres undefined) | nt | 6% | nt | nt | 1% | -2% | 18% | ?
O=C(COC(=O)c1ccc(Br)o1)Nc1ncc([N+](=O)[O-])s1 | nt | 23% | nt | nt | 19% | -2% | -8% | 7%
CCOc1ccc(C(=O)NC(=S)NCc2cccnc2)cc1 | -6% | -10% | -0.2% | 10% | 7% | -1% | 5% | ?
Cn1c(SCC(=O)Nc2ccc3[nH]c(=O)[nH]c3c2)nnc1-c1ccc(F)cc1 | -21% | -18% | nt | nt | nt | 0% | 4% | nt
O=S(=O)(c1ccccc1)c1nnn2c1nc(NC1CCCCC1)c1sccc12 | nt | -1% | -0.4% | 6% | 15%[46.1 µM] | nt | nt | nt
Cc1cccc(CN2CCC(CNC(=O)Cn3ncc4c([nH]c5ccc(C)cc54)c3=O)CC2)c1 | nt | -3% | -5.9% | -7% | -4%[46.1 µM] | nt | nt | nt
Cc1cc(Br)cc(C=Nc2ccc(N3CCOCC3)cc2)c1O | nt | -6% | nt | nt | 0%[46.1 µM] | nt | 2% | ?
CCC(C)NC(=O)C1CCN(c2nc(OC)nc(OC)n2)CC1 (centres undefined) | -1% | 4% | -2.0% | 0% | 2% | -2% | 4% | 18%
COC(=O)c1sccc1S(=O)(=O)N(CC(=O)NCc1ccccc1)c1ccc(C)c(C)c1 | nt | 46%[activator] | -3.6% | -6% | ? | nt | nt | nt
CC(C)CN(C(=O)COC(=O)CN1C(=O)c2ccccc2C1=O)c1c(N)n(Cc2ccccc2)c(=O)[nH]c1=O | nt | -4% | nt | nt | 5% | 4% | 4% | -6%[46.1 µM]

More structures
Order of results: NS1 function inh	2A StopGo	Cruzain inh Det	Cruzain inh noDet	LASV entry inh	SARS PLpro yeast	RE007 growth inh	Marburg entry inh
CCOC(=O)C1CCN(C(=O)Cc2ccc(C)cc2)CC1
    0%	34%[activator]	5.2%	-12%	?	5%	-10%	2%
CCNC(=O)COc1ccc(/C=C2\COc3ccccc3C2=O)cc1OC
    -33%	28µM*	nt	nt	15µM*	-10%	-1%	?
O=C(C1CCC(CNc2c(N3CCCCC3)c(=O)c2=O)CC1)N1CCCCC1 (centres undefined)
    -3%	-8%	6.3%	-5%	nt	2%	12%	nt
COCCN1CCN(C(=O)C2CCC(=O)N(Cc3cccc(C(F)(F)F)c3)C2)CC1 (centres undefined)
    11%	-9%	nt	nt	-5%	-3%	4%	12%
COc1nc(NCc2ccco2)nc(N2CCC(C)CC2)n1
    -21%	-15%	-2.8%	-9%	-4%	17%	0%	-10%[46.1 µM]
COC(=O)c1c(NC(=O)c2ccc(C(C)(C)C)cc2)sc2c1CCC(C)C2 (centres undefined)
    nt	11%	-4.3%	-8%	-18%[46.1 µM]	nt	nt	nt
COc1ccc(-c2nnc(N3CCC(C)CC3)c3ccccc23)cc1
    -2%	0%	-9.4%	-12%	-2%	-11%	-2%	-4%
O=S1(=O)N=C(Nc2nncs2)c2ccccc21
    4%	12%	2.1%	-12%	-6%	7%	18%	21%
Cc1cccc(N2CCN(C(=O)CCc3c(C)nc4c(c3C)c(=O)n(C)c(=O)n4C)CC2)c1C
    nt	-22%	-0.8%	-6%	23%[46.1 µM]	nt	nt	-10%[46.1 µM]
Cc1cccc(CNC(=O)c2cc3cc(S(=O)(=O)N4CCCCC4)ccc3n2C)c1
    nt	-21%	-2.4%	-8%	-28%[46.1 µM]	nt	nt	nt
CCOc1ccccc1CNCc1c(C(=O)O)c(C)n(Cc2ccc(C)cc2)c1C
    nt	9%	-1.6%	-1%	0%[46.1 µM]	nt	nt	11%[46.1 µM]
COc1ccccc1NC(=O)CSc1nnc(NC(=O)Nc2ccc(C)cc2)s1
    nt	-8%	-0.6%	7%	?	nt	nt	nt
CSc1ccc(CCNC(=O)c2cc(C)nn2-c2ccccc2)cc1
    0%	-22%	nt	nt	nt	-2%	1%	-1%
COC(=O)c1ccc(N)nc1
    4%	-7%	nt	nt	-2%[46.1 µM]	-1%	0%	-18%[46.1 µM]
CCOc1cc(/C=C2\SC(N3CCCCC3)=NC2=O)ccc1O
    -2%	45%[activator]	nt	nt	?	-2%	5%	17%[46.1 µM]
Cc1[nH]c2ccc(OC(=O)N3CCOCC3)cc2c1C(=O)OC(C)C
    -1%	?	-1.2%	6%	-19%	?	-10%	-20%
CC1(C)Cc2noc(N)c2C(C)(C)N1OC(=O)c1cccs1
    1%	-15%	-4.5%	4%	-1%	-1%	9%	0%[46.1 µM]
CCOC(=O)C1CCN(C(=O)c2cn(CCOC)c(=O)c3c2c2ccccc2n3C)CC1
    -7%	20%	-0.4%	?	2%	11%	-7%	0%
CC(C)c1nnc(NC(=O)CCC2CCCCC2)s1
    3%	25%	nt	nt	-19%[46.1 µM]	5%	5%	2%[46.1 µM]
C/C(=N\NC(=O)OC(C)(C)C)c1ccc(-n2ccnc2)cc1
    nt	18%	nt	nt	5%[46.1 µM]	1%	-12%	10%[46.1 µM]

Ordered by count of non-hydrogen atoms (highest first): 5 of the compounds above
Order of results: NS1 function inh	2A StopGo	Cruzain inh Det	Cruzain inh noDet	LASV entry inh	SARS PLpro yeast	RE007 growth inh	Marburg entry inh
CCOc1ccccc1CNCc1c(C(=O)O)c(C)n(Cc2ccc(C)cc2)c1C
    nt	9%	-1.6%	-1%	0%[46.1 µM]	nt	nt	11%[46.1 µM]
CSc1ccc(CCNC(=O)c2cc(C)nn2-c2ccccc2)cc1
    0%	-22%	nt	nt	nt	-2%	1%	-1%
CCOc1cc(/C=C2\SC(N3CCCCC3)=NC2=O)ccc1O
    -2%	45%[activator]	nt	nt	?	-2%	5%	17%[46.1 µM]
COc1nc(NCc2ccco2)nc(N2CCC(C)CC2)n1
    -21%	-15%	-2.8%	-9%	-4%	17%	0%	-10%[46.1 µM]
CC(C)c1nnc(NC(=O)CCC2CCCCC2)s1
    3%	25%	nt	nt	-19%[46.1 µM]	5%	5%	2%[46.1 µM]

The listing continues:
Order of results: NS1 function inh	2A StopGo	Cruzain inh Det	Cruzain inh noDet	LASV entry inh	SARS PLpro yeast	RE007 growth inh	Marburg entry inh
CCOc1ccc(-n2nc3ccc(NC(=O)c4ccc(OC)c(Cl)c4)cc3n2)cc1
    nt	-5%	1.3%	-15%	0%[46.1 µM]	nt	nt	nt
Cc1ccc(C(=O)C2=C(O)C(=O)N(c3ncccn3)C2c2cccc(Cl)c2)o1 (centres undefined)
    3%	nt	-0.1%	6%	nt	1%	nt	4%
Cc1ccc(C(=O)N/C(=C\c2ccc(-c3cccc([N+](=O)[O-])c3)o2)C(=O)NC(C)(C)C)cc1
    2%	-12%	-8.9%	1%	-23%	1%	4%	?
O=C(CC1(c2ccc(Cl)cc2)C2CC3CC(C2)CC1C3)NCCO (centres undefined)
    nt	-8%	nt	nt	1%	0%	-8%	-24%
Cc1cc(C(=O)c2cccs2)c(N)s1
    -54%	nt	-3.4%	-22%	7%	?	-21%	1%
Cn1c(CN2CCN(c3cccc(Cl)c3)CC2)nc2ccccc21
    -39%	-2%	-11%	-17%	10%	?	-7%	-26%
COc1ccc(-n2c(SCC(=O)NC3CCCCC3)nc3c([nH]c4ccccc43)c2=O)cc1
    nt	-25%	-1.2%	-3%	12%[46.1 µM]	nt	nt	nt
CCC1C(=O)NCCN1C(=O)CCc1nnc(CCc2ccc(OC)cc2)o1 (centres undefined)
    7%	16%	nt	nt	13%	-5%	-14%	?
CC1CCC(NC(=O)CCS(=O)(=O)c2ccc3c(c2)NC(=O)CS3)CC1 (centres undefined)
    -2%	-6%	nt	nt	-7%[46.1 µM]	3%	6%	?
